From PubChem
Tgondii IFNg = T. gondii growth inhibition with IFN-gamma, primary screen, cell-based; Toxoplasma gondii growth in IFN-gamma-treated host cells; active compounds read low; reference of the scale not given here; activity change, negative = inhibition, %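 (about 20 µM by stock and volumes)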; actives 3.8% (n = 69,000); AID 1259416, 2018;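 active = below -70%; inconclusive = fit judged invalid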;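 also: host cells are HeLa cells infected with Toxoplasma gondii; parasite growth read as luciferase light; one replicate is shown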
* hit, by the source's call; i = inactive; ? = inconclusive. Not all compounds are listed; count on the stated rates, not on these rows.

SMILES	Tgondii IFNg
C[C@@H]1CN([C@@H](C)CO)C(=O)Cc2cc(N(C)C)ccc2O[C@H]1CN(C)C(=O)NC1CCCCC1	-64
O=C(c1ccc[nH]1)N1CCC2(CC(Nc3ncccn3)CO2)C1 (stereo unspecified)	25
CCOCC1CC2OCCN(C(=O)NCc3cccnc3)C2C1 (stereo unspecified)	95
O=C(c1cccs1)N1CCC2(CC1)CC(N1CCCC1)CO2 (stereo unspecified)	-11
Cc1ccc(C)c(NC(=O)N2CCC3(CC2)NC(=O)c2ccc(F)cc2N3C)c1	?
CC1Cc2cc(CN(CCN(C)C)Cc3cccs3)ccc2O1 (stereo unspecified)	68
CC1CN(C(=O)c2cn[nH]c2C2CCN(C(=O)Cc3ccccc3F)CC2)CC(C)O1 (stereo unspecified)	13
OC1(c2ccccc2)c2ccccc2-c2ccccc21	26
CS(=O)(=O)c1ccc(-c2nc(-c3ccc(F)cc3)c(-c3ccncc3)[nH]2)cc1	11
C[C@@H]1CN([C@@H](C)CO)C(=O)Cc2cc(NS(=O)(=O)c3cccs3)ccc2O[C@@H]1CN(C)CC1CCCCC1	-17
C=CCN1C(=O)CC2(CCN(C(=O)c3cnc(C)cn3)CC2)c2ccccc21	6
CCNC(=O)[C@H]1[C@H](CO)[C@H]2Cn3c(cccc3=O)[C@@H]1N2C(=O)Nc1cc(F)ccc1F	4
c1coc(CN2C[C@H]3COC[C@@]3(COCC3CC3)C2)c1	46
CCOC(=O)c1cc(C)nc2c1c(=O)n(Cc1nc(-c3ccc(C)cc3)oc1C)c(=O)n2C	8
O[C@H]1CN(c2nccc(C3CCCC3)n2)C[C@@H]1N1CCCCC1	8
Cc1c(C(=O)NC2CCCC2)sc2ncnc(NC[C@H]3C[C@@H]4C=C[C@H]3C4)c12	-3
Cc1ccccc1S(=O)(=O)N1CCC(C(=O)NCCc2csc(-c3ccccc3)n2)CC1	-10
CCOC(=O)N1CCC(NC(=O)c2ccccc2C2CCNC2)CC1 (stereo unspecified)	5
COCCN1C(=O)CCC12CCN(C(=O)c1conc1C)CC2	-2
O=C1CCC2(CCCO2)CCN1Cc1ccccc1-n1cccn1 (stereo unspecified)	-1

Looked up above:
OC1(c2ccccc2)c2ccccc2-c2ccccc21 in Tgondii IFNg shows 26
COCCN1C(=O)CCC12CCN(C(=O)c1conc1C)CC2 in Tgondii IFNg shows -2
CCOCC1CC2OCCN(C(=O)NCc3cccnc3)C2C1 (stereo unspecified) in Tgondii IFNg shows 95
CCOC(=O)c1cc(C)nc2c1c(=O)n(Cc1nc(-c3ccc(C)cc3)oc1C)c(=O)n2C in Tgondii IFNg shows 8
c1coc(CN2C[C@H]3COC[C@@]3(COCC3CC3)C2)c1 in Tgondii IFNg shows 46
Cc1ccccc1S(=O)(=O)N1CCC(C(=O)NCCc2csc(-c3ccccc3)n2)CC1 in Tgondii IFNg shows -10

Back to the main list, repeating the three entries before the break.
SMILES	Tgondii IFNg
CCOC(=O)N1CCC(NC(=O)c2ccccc2C2CCNC2)CC1 (stereo unspecified)	5
COCCN1C(=O)CCC12CCN(C(=O)c1conc1C)CC2	-2
O=C1CCC2(CCCO2)CCN1Cc1ccccc1-n1cccn1 (stereo unspecified)	-1
O=C1CN(C(=O)CN2CCCC(COc3ccccc3F)C2)c2ccccc2N1 (stereo unspecified)	4
COCC(=O)NCC(c1ccccc1C)N(C)C (stereo unspecified)	-4
COc1ccc([C@@H]2CC(=O)c3c(O)cc(O[C@@H]4O[C@H](CO[C@H]5O[C@@H](C)[C@H](O)[C@@H](O)[C@H]5O)[C@@H](O)[C@H](O)[C@H]4O)cc3O2)cc1O	8
CC(C)NC(=O)N1[C@@H](CO)[C@@H](c2ccccc2)C12CN(Cc1cc(F)cc(F)c1)C2	18
Cc1ccc(-c2ccccc2-n2cnnc2)o1	-7
Cc1nc2sccn2c1C(=O)N1CCNCC1C(=O)N1CCOCC1 (stereo unspecified)	1
Cc1nc2ncccn2c1C(=O)N1CCC(n2cc(CC(C)C)nn2)CC1	-1
CCC1(CC)CN(c2ccnc(C(=O)NCCOC)c2)CCO1	9
CCC(CC)C(=O)N1CCC2(CC1)CC(CC(=O)N1CCCC1)c1ccccc12 (stereo unspecified)	-4
O=C(O)Cn1cc(CN2CCOCC2)c2ccccc21	-63
COC(=O)c1sc2ccccc2c1Cl	8
Cc1nc(S(=O)(=O)N[C@@H]2CC[C@@H](N)C2)cn1C	-4
Cc1cnc(N2C[C@@H]3N(c4ncccn4)CCC[C@@]3(C(=O)NCC3CC3)C2)nc1	-47
O=C(NCCN1CCCC1)c1nc(Nc2ccc(F)cc2)c2ccccc2n1	-24
O=C(O)C1CC(N2CCCC2)CCN1S(=O)(=O)c1cccc(F)c1 (stereo unspecified)	3
Cc1ccc(CN2CC[C@@H]3[C@H](CO[C@H]3CN3CCOCC3)C2)o1	141
CC(C)n1nc(Cn2cccc2)c2c1CN(CC1CCOC1)C2 (stereo unspecified)	3
Cc1cc(N2CCCC2c2[nH]ncc2C)nc(N)n1 (stereo unspecified)	-6
COc1cccc(NC(=O)Nc2ccc3c(c2)C(=O)N(C)C[C@H](OC)[C@H](C)CN(CC2CC2)[C@H](C)CO3)c1	-41
Cc1cc(C(=O)N[C@H](CO)CC(C)C)c(NC(=O)C(C)(C)C)s1	-2

Reprinted at random: 2 entries already listed
SMILES	Tgondii IFNg
CCC(CC)C(=O)N1CCC2(CC1)CC(CC(=O)N1CCCC1)c1ccccc12 (stereo unspecified)	-4
CCC1(CC)CN(c2ccnc(C(=O)NCCOC)c2)CCO1	9

Later entries:
SMILES	Tgondii IFNg
Cc1ccc(-c2noc(-c3c(O)c4cc(F)ccc4n(C)c3=O)n2)c(C)c1	14
O=C(NCC1(O)CCCNCC1)c1cc2ccccc2[nH]c1=O (stereo unspecified)	3
CN(Cc1cc2n(n1)CCCNC2)Cc1nc(-c2ccccc2)cs1	-20
Cc1nc(CN2CCN(C(=O)c3nccc4ccccc34)CC2)cs1	7
CCN1C[C@H]2CN(Cc3ccc4c(c3)OCO4)CCC[C@@]2(C(=O)O)C1	0
Cc1nn(C)c(C)c1CCNC(=O)C1CCN(c2ccc(C(F)(F)F)cn2)CC1	5
O=C1N(CCc2ccccc2)CCCC1(O)CNCc1ccsc1 (stereo unspecified)	-1
CC(=O)c1ccc(N(CC(=O)NC(C)(C)C)C(=O)CNC(=O)c2cccs2)cc1	-22
O=C(Cn1nnc2ccccc2c1=O)NCCOCCn1c(=O)oc2ccccc21	-5
CS(=O)(=O)N1CCc2c(nnn2CC2CC2)C1COCC1CC1 (stereo unspecified)	3
CS(=O)(=O)NCC1CCN(CCCc2ccccc2)C1 (stereo unspecified)	5
CCc1nc(CN2CCN(c3ccc(F)cc3)CC2)c(C)[nH]1	-17
Cc1ccc(OCC(=O)Nc2ccccc2N2CCN(C)CC2)cc1	-55
O=C(C[C@@H]1CC[C@H]2[C@@H](COC[C@@H](O)CN2C(=O)Nc2cc(Cl)cc(Cl)c2)O1)N1CCOCC1	3
Cc1noc(C)c1CN1CCC(N2CCOCC2)CC1C(=O)O (stereo unspecified)	38
CNC(=O)Cc1ccc(-c2c(Cl)cccc2OC)cc1	2
CC(C)c1nc2ccc(Br)cn2c1NC1CCCCC1	36
Cc1nc(NC(CC(C)C)C(=O)O)c2nc(C)oc2n1 (stereo unspecified)	-8
CCOc1cc(CN2C[C@@H]3CCCN3C[C@@H]2Cc2ccccc2)ccc1OCCO	10
COc1ccccc1CN(C(=O)CCn1cnc2ccccc21)C1CC1	-6
Cc1ccc(CNC(=O)CN2C(=O)CCc3cc(S(=O)(=O)N4CCCC4)ccc32)o1	32
COc1ccc(CN2CCCC(N3CCc4cc(OC)c(OC)cc4C3C)C2)cc1O (stereo unspecified)	-2
CN(c1cncc(C(=O)NC2CCCCC2)c1)S(=O)(=O)c1ccccc1	12
O[C@@H]1CN(Cc2cccc3cccnc23)CC[C@H]1c1ccc(F)cc1	17
COc1cc(F)ccc1-c1c(-c2ccccc2)ncn1CCCN1CCCC1=O	-14
COc1cccc(CNCC2CCNCC2)c1OCc1ccc(F)cc1	-52
Cc1ccc(C(=O)NC(=S)Nc2cccc(NC(=O)c3ccccc3)c2)cc1C	-64
O=C(/C=C/c1ccccc1)c1ccc(O)cc1O	41
O=C(CSc1nnc(-c2ccsc2)c(-c2ccsc2)n1)c1ccc(F)cc1	47
CC(=O)Oc1cc2sc(=O)oc2c2ccccc12	-35
Cc1cc(C)c(S(=O)(=O)N2CCC3(CC2)Nc2ccc(C)c(C)c2-n2cccc23)c(C)c1	40
COc1ccc(NC(=O)Cn2c(=O)cc(C(=O)N3CCc4ccccc4C3)c3ccccc32)cc1	12
CCCN(Cc1cccc(Cl)c1)C(=O)CCn1cnc2ccccc2c1=O	-24
CN(C)C(=O)C1(C)CN(Cc2nc3ccccc3n2C)CCO1 (stereo unspecified)	0
Cn1cc(C[C@H]2[C@H](O)CCN2C(=O)c2cnccn2)cn1	6
O=C(Cc1cccnc1)N1CC(=O)N2[C@H](CO)[C@@H](c3ccc(/C=C/c4ccccc4)cc3)[C@@H]2C1	-33
NC(=O)N1Cc2nccn2CC(COc2cccnc2)C1 (stereo unspecified)	-100*
CO[C@H](CN(C)C(=O)c1cnccn1)[C@H](C)CN([C@H](C)CO)S(=O)(=O)c1ccccc1	42
CCSc1ncc(CN2C[C@@H]3CCCN3C[C@@H]2Cc2ccccc2)cn1	-44
CC(CCc1ccccc1)NC(=O)Cn1ncc2c(N3CCCCC3)ncnc21 (stereo unspecified)	-11
CS(=O)(=O)N1[C@H](C#N)[C@H](c2ccccc2-c2ccccc2F)[C@H]1CO	28
CCc1cc(NCCCN2CCCC2=O)nc(N2CCOCC2)n1	13
COCC(=O)Nc1ccc2c(c1)CCC(=O)N2CC(C)C	35
CCN(C[C@@H]1N[C@@H](CO)[C@H]1c1ccccc1)C(=O)c1ccncc1	-4
CS(=O)(=O)NC1CCN(Cc2ccc3c(c2)OC(F)(F)O3)CC1	-11
CC(C)c1nccc(CN(Cc2ccco2)C(C)C(C)C)n1 (stereo unspecified)	5
O=C(c1sccc1S(=O)(=O)N1CCCC1)N1CCCC(c2ccn[nH]2)C1 (stereo unspecified)	2
CCc1cc2cc(C)c(C)cc2nc1SCC(=O)Nc1cc(OC)ccc1OC	-36
CN(C)CC(=O)N1[C@H](CO)[C@@H](c2ccccc2-c2ccccc2F)[C@@H]1C#N	7
CCCn1nnnc1NCc1cc(Cl)c(OCc2cccs2)c(OC)c1	-53
COCCNC(=O)C[C@H]1CC[C@H]2[C@@H](COC[C@@H](O)CN2S(=O)(=O)c2ccccc2F)O1	3
CC(C)CC(NC(=O)C(C)N)C(=O)O (stereo unspecified)	26
COc1cc(-c2ncn(/C=C\C(=O)OC(C)C)n2)cc(C(F)(F)F)c1	-85*
CC1(C)CC(C(=O)N2CCC(n3cc(-c4ccccn4)nn3)CC2)CCO1 (stereo unspecified)	2
Cc1ccnc(C(NC(=O)c2ccc(Cn3nnnc3C)cc2)C2CC2)c1 (stereo unspecified)	9
CCc1cn[nH]c1C1CCCN(C(=O)c2cccc(-n3cnnc3)c2)C1 (stereo unspecified)	1
O=C1CC2(CCN(C(=O)c3ccccc3C3CCNC3)CC2)CN1 (stereo unspecified)	-5
Cc1nc2sccn2c1C(=O)N1CCCCC1CCc1ccccn1 (stereo unspecified)	-3
CO[C@@H](C(=O)N(C)C[C@H]1OCc2ccccc2-c2ccccc2C(=O)N([C@H](C)CO)C[C@H]1C)c1ccccc1	-4
CC(=O)N1CCc2c([nH]c3ccccc23)C12C(=O)Nc1ccc(Br)cc12 (stereo unspecified)	147
Following part
SMILES	Tgondii IFNg
Cc1nc(CC(=O)NC2(C#Cc3cncc(C(N)=O)c3)CCCCC2)cs1	76
CCCCS(=O)(=O)NCC1COCc2c(C)nnn2C1 (stereo unspecified)	-23
CCCCS(=O)(=O)N1CCC2(COCc3cnc(N4CCOCC4)nc32)C1 (stereo unspecified)	2
COc1cccc(C(=O)Nc2ccc(S(=O)(=O)Nc3cc(C)nc(C)n3)cc2)c1	30
Cc1nonc1C1CCCN1C(=O)c1cc(CC(C)C)on1 (stereo unspecified)	-8
O=C(Cc1cccc(F)c1)N1CCn2cnc(COCC3CC3)c2C1	1
CN(C)C1CCCN(C(=O)CCC(=O)c2cccc3ccccc23)CC1 (stereo unspecified)	8
CCc1ccccc1NC(=O)c1nnn(Cc2nc(-c3cccc(Cl)c3)oc2C)c1C	32
CCc1ccc(NC(=O)c2c(O)c3ccccc3[nH]c2=O)cc1	i
Cc1cccc2ncc(C(=O)N3Cc4cnc(CC(C)C)nc4C3)c(=O)n12	11
CCN1c2ccccc2C(=O)NC12CCN(C(=O)Nc1ccc(OC)cc1)CC2	120
CC(=O)NC(Cc1c[nH]c2ccccc12)C(=O)N/N=C/c1ccccc1 (stereo unspecified)	20
CC(=O)[C@H]1CCC2C3CCC4=CC(=O)CC[C@]4(C)C3[C@H](OC(=O)CCC(=O)O)C[C@@]21C (stereo partly specified)	9
O=C(CCN1Cc2ccccc2C1=O)Nc1cnn(Cc2ccc(F)cc2)c1	-15
FC(F)(F)c1cccc(NC(=S)Nc2csc(C(F)(F)F)c2-c2ccccc2)c1	-97*
Cc1cccc(-c2nnc(-c3nc(NCCN4CCOCC4)c4ccccc4n3)o2)c1	98
CCCNS(=O)(=O)c1ccc2c(c1)n(C)c(=O)n2C	32
FC(F)(F)Oc1ccc(Nc2n[nH]c(=S)s2)cc1	-92*
CCn1ncnc1-c1c(-c2ccccc2)ncn1CCc1cccs1	-1
Cc1ccc2c(c1C)-n1cccc1C1(CCN(C(=O)COc3ccccc3)CC1)N2	28
OC1(C#CCN2CCCCC2)CCCCC1	3
CC(C)[C@H]1CN(Cc2ccco2)CCN1C(=O)c1ccc(Cn2cccn2)o1	5

Rewritten with bars between the fields: part of the list above.
smiles | Tgondii IFNg
CCn1ncnc1-c1c(-c2ccccc2)ncn1CCc1cccs1 | -1
CC(=O)NC(Cc1c[nH]c2ccccc12)C(=O)N/N=C/c1ccccc1 (stereo unspecified) | 20
